Screening results deposited in PubChem BioAssay by National Center for Advancing Translational Sciences (NCATS).
ClpP mod: qHTS Assay for Activators of ClpP; ATP-dependent Clp protease proteolytic subunit (Bacillus subtilis (strain 168)), P80244; purified B. subtilis ClpP, FRET peptide cleavage, 20 min; Potency, µM (titrated, usually from 57.5 µM), without a hit: at the top dose activity change, negative = active; hit rate 1.9% among 340,000; active = well fitted falling curve with a large enough effect; inconclusive = small, poorly fitted or top-dose-only effect; inactive = no such curve, though single readings can be large or run the other way; also: potency is read from the fitted curve at half-maximal effect; the source files actives as falling curves though it sought activators and does not explain the sign; nearly all actives have a fitted effect of over 65% in size; many hits overshoot -100%
Target sequence (P80244 whole entry, looked up): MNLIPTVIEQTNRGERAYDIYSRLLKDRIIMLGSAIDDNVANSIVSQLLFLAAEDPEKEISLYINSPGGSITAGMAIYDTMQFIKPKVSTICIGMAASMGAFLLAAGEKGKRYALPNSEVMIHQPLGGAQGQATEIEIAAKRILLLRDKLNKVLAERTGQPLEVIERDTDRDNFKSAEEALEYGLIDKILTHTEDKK
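Buffer: 100 mM Tris/HCl pH8, 100 mM KCl, 0.05% low protease BSA, 2.5% glycerol, 0.01% Tween-20. ClpP 10 microg/mL final; 20 min RT; delta FRET normalized to ADEP and DMSO controls.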
gsp antag: gsp mutant antagonism; gsp-mutant cells, cAMP HTRF, 30 min; control for the full effect not named in the record; Potency, µM (doses to about 76.9 µM), without a hit: at the highest dose activity change, negative = inhibition, usual class: inhibitors; hit rate 0.4% among 340,000; AID 624288; active = falling curve of any shape with a large fitted effect; inconclusive = falling curve, mostly with a smaller effect; inactive = flat or rising curve; cell line not stated here;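 also: intracellular cAMP measured with PDE inhibitor Ro 20-1724 present during compound exposure; potency is read from the fitted curve at half-maximal effect; % is scaled to controls: 0 for no effect and ±100 for the full control effect; nearly all actives have a fitted effect of over 65% in size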
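Cells in G418 medium, seeded 16-24 h, 37C; buffer exchange to DPBS + 1 mM CaCl2, 0.5 mM MgCl2, 0.05% BSA; cpds in DMSO + […] (300 uM stock), 30 min 37C; HTRF cAMP detection.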
Menin MLL FP FL: inhibitors of human menin-MLL interaction, wild-type MLL peptide. Fluorescence polarization, fluorescein-MLL peptide displacement from menin. FP activity change, % at 61.4 µM. 290,000 tested, under 10 active; inconclusive = falling polarisation curve, or a change in total fluorescence; inactive = total fluorescence flat and polarisation flat or rising; no compound was filed as active; the % refers to the polarisation; negative = inhibition;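 also: % of control where 0% means no effect; inhibitors lower the polarisation; unlabelled MLL peptide was the positive control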
gsp ag: activates gsp, the McCune-Albright syndrome mutation | gsp mutant cells, cAMP HTRF, 30 min; control for the full effect not named in the record | Potency, µM (series often up to 76.9 µM), without a hit: at the top dose activation (cAMP increase), usual class: activators | AID 624287 | hit rate 0.13% among 340,000; active = well fitted activation curve with a large enough effect; inconclusive = small, poorly fitted or top-dose-only effect, or another doubt; inactive = no such curve, though single readings can be large or run the other way; cell line not stated here;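 also: phosphodiesterase inhibitor Ro 20-1724 added with compounds to block cAMP breakdown; potency is read from the fitted curve at half-maximal effect; nearly all actives have a fitted effect of over 60% in size; about a fifth of the inactives were tested at one dose only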
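Cells in DMEM/10% FBS with G418 were pretreated with compounds in DMSO plus […] (300 uM stock) for 30 min at 37C. cAMP was measured by HTRF (cAMP-d2 plus anti-cAMP antibody-K) after 30 min at room temperature.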
TRPML1 agonist: agonists of human TRPML1 channel. TRPML1-expressing cells, Ca2+ dye fluorescence, FDSS; host cell line not named in the record; reference of the full effect not given here. activation, % (test concentration not listed). hit rate 0.12% among 410,000. Q9GZU1; in the data active = activation above about 50%; inconclusive = about 30% to 50%; inactive = below about 30%; also: 0% is about no effect; the text of the record puts the active cut at 80%
Target sequence (Q9GZU1 whole entry, looked up): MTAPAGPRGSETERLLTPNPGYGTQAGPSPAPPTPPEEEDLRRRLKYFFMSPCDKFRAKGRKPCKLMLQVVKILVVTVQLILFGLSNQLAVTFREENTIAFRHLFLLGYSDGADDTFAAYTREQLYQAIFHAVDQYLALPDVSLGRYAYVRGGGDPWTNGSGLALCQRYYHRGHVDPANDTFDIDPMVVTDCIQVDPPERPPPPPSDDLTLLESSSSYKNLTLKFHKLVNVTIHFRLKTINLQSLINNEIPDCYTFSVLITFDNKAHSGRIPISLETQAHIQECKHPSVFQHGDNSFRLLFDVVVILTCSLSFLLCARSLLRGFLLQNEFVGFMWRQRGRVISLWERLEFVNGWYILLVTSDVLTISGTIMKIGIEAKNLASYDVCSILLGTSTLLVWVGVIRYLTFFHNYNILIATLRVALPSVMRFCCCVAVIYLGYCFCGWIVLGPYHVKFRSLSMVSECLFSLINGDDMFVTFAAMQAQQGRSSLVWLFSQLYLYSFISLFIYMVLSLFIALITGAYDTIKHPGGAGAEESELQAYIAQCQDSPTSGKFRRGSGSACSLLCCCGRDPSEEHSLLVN
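Cells: TRPML1-DL, 1X Tet inducer, ~16 h at 37 degrees C/5% CO2. Dye: ABD Ca8 no-wash + quencher, 45-90 min RT. Read: 10 s baseline, compound add, 110 s agonist phase; 54-4 EC80 (4uM final), 110 s antagonist phase.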
TRPML1 blocker: inhibitors of human TRPML1 channel. activity change, negative = inhibition, % (no concentration beside the values). hit rate 0.02% among 390,000. Q9GZU1. TRPML1-inducible cells, Ca2+ dye fluorescence, FDSS; active compounds read low; inhibition of EC80 agonist-evoked calcium signal; in the data active means activity change below about -50%; inconclusive means about -30% to -50%; inactive means above about -30%;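 also: stimulus is agonist 54-4 at its EC80 concentration; % is scaled to controls: 0 for no effect and ±100 for the full control effect; compound concentration not given in the record; the text of the record puts the active cut at -80%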
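Calcium fluorescence in TRPML1-DL cells induced overnight with Tet: a 110 s read after compound pin addition, then a 110 s antagonist read after challenge with 54-4 at 4 uM final (EC80).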
* marks the source's active call; other numbers are inactive results; u = inconclusive; x = not tested or not shown; [ ] = another dose, or the depositor's remark. The order is random; overall some 2.1% were active at least once.

SMILES	ClpP mod	gsp antag	Menin MLL FP FL	gsp ag	TRPML1 agonist	TRPML1 blocker
CCCOc1ccc(/C=N/NC(=O)C2CCCN2S(=O)(=O)c2ccc(Cl)cc2)cc1 (stereo not drawn)	1.1%	-8%	-1.9	-3%	3.6	89
CC(=O)CCN1CCOCC1	-0.5%	13%	1.3	-3%	0.6	-17
CSc1ncc(Cl)c(C(=O)Nc2ccccc2Br)n1	2.2%	-1%	0.7	-4%	2.2	-19
O=C(NCCC1=CCCCC1)Nc1ccc2nsnc2c1	x	u	1.3	-30%	0.6	-8
Cc1cccc(NC(=O)Cn2c(=O)oc3ccccc32)c1C	x	3%	0.0	-18%	-0.6	17
CC(=O)c1c(N2CCC(C(N)=O)CC2)nc(=S)n(-c2ccccc2)c1C	0.5%	15%	0.9	11%	-1.0	-6
Nc1cc(=O)[nH]c(SCC(=O)Nc2ccc(S(=O)(=O)N3CCCCC3)cc2)n1	x	12%	-4.5	6%[15.4 µM]	1.1	8
CCN(CC(O)Cn1c2ccccc2c2ccccc21)S(=O)(=O)c1ccc(F)cc1 (stereo not drawn)	-6.0%	-12%	-0.3	6%	2.5	73
COc1cccc2cc(C(=O)OC(C)C(=O)c3ccc(C)cc3)c(=O)oc12 (stereo not drawn)	0.2%	-2%	x	-19%	0.4	15
CCc1ccc(Nc2ccc3nonc3c2[N+](=O)[O-])cc1	x	-1%	x	-17%[15.4 µM]	1.4	90
CC(=O)c1ccc(N2CCN(C(=S)Nc3cccc(Cl)c3)CC2)cc1	-1.5%	16%	5.0	8%	0.3	2
CCn1c(Cc2ccccc2)nnc1SCC(=O)OC(C)C	3.2%	-1%	0.3	-3%	-0.3	-7
O=[N+]([O-])c1cccc(CN(CCO)Cc2ccccc2)c1	-6.0%	2%	0.4	13%	0.8	-1
Cc1ccc(S(=O)(=O)N2CCC(C(=O)Nc3ccc(C(C)C)cc3)CC2)cc1	1.4%	-19%	x	-35%[inhibitor]	3.1	2
CC(N)C12CC3CC(C1)CC(C(C)N)(C3)C2 (stereo not drawn)	0.0%	13%	1.8	3%	-0.3	8

Some entries already given, showing only gsp antag:
Compound | gsp antag
CSc1ncc(Cl)c(C(=O)Nc2ccccc2Br)n1 | -1%
O=C(NCCC1=CCCCC1)Nc1ccc2nsnc2c1 | u

(list continues)
SMILES	ClpP mod	gsp antag	Menin MLL FP FL	gsp ag	TRPML1 agonist	TRPML1 blocker
CC(C)(C)SCCNC(=O)Nc1ccccc1	-0.9%	-5%	2.0	-5%	1.2	8
N#C/C(=C\N1CCOCC1)S(=O)(=O)c1ccc(Cl)cc1	-4.1%	-3%	2.8	-5%[15.4 µM]	-0.2	5
Cc1noc(C)c1CSCC(=O)Nc1nc2c(F)cc(F)cc2s1	-2.1%	-7%	x	-15%	1.2	-8
CCN(CC)C(=O)C1CC(=O)OC12CCCCC2 (stereo not drawn)	-0.2%	12%	1.8	1%	-0.1	-3
O=C(Nc1ccccc1C(=O)NC1CC1)c1ccccc1F	-3.4%	6%	x	0%	-0.8	-14
CC1CCCCC1NC(=O)CN1CCC(O)(c2ccc(F)cc2)CC1 (stereo not drawn)	-0.4%	2%	1.0	-39%[inhibitor]	0.0	11
CCOC(=O)c1sc(NC(=O)COC(=O)CNC(=O)C2CCCCC2)c(C(=O)OCC)c1C	-11%	28%	-1.0	0%	0.9	28
Cc1cccc(N2CCN(C(=O)Cn3ccc4ccccc4c3=O)CC2)c1C	-9.1%	-48%	-2.6	-10%	-0.4	11
CCOc1ccccc1NC(=O)N1CCCC1C(=O)Nc1ccc(-n2cnnn2)c(C)c1 (stereo not drawn)	-3.3%	4%	-0.6	u	4.1	-10
O=C(COC(=O)CCc1nc2ccccc2s1)NC(=O)NCc1ccco1	x	11µM*	4.1	1%[15.4 µM]	3.1	2
CC(C)c1cc(C(F)(F)F)n2nc(C(=O)Nc3ccc(-n4cnnn4)cc3)cc2n1	u	5%	-1.5	-17%	0.0	17
O=C(COc1cccc2cccnc12)N/N=C1\SCC(=O)N1Cc1ccco1	-3.6%	8%	3.0	-1%	-1.2	10
COC(=O)/C=C1/S/C(=N/NC(=O)c2ccccc2)NC1=O	-2.7%	-7%[15.4 µM]	0.3	12%	0.7	-5
S=C(NCc1ccccc1)N1CCn2cccc2C1c1cccnc1 (stereo not drawn)	x	-2%	3.8	10%[15.4 µM]	1.8	-7
Cc1nc(-n2nc(C)c(Cc3ccc(Cl)cc3)c2C)sc1C(=O)N1CCCCC1C (stereo not drawn)	0.9%	x	x	x	1.7	46
Cc1ccc(S(=O)(=O)C2(C(=O)Nc3cccnc3)CC2)cc1	2.4%	4%	0.9	0%	-0.2	-2
CCOC(=O)c1cnc(SCC(=O)OC)nc1N	-1.3%	-31%	-0.8	u	-0.4	-9
NS(=O)(=O)c1ccc(N/C=C\C(=O)c2ccc(F)cc2)cc1	-2.4%	-4%	-1.8	-6%[15.4 µM]	1.1	-10
CCc1cccc2c(C(=O)C(NCCCOC)c3ccccc3)c[nH]c12 (stereo not drawn)	x	-2%	-3.3	-6%[15.4 µM]	2.5	-15
Cc1ccc(Nc2ncnc(-n3cccc3)n2)cc1Cl	-9.6%	3%	5.1	-2%	1.3	8
Cc1cc(Cl)ccc1C(=O)C1CCCN(C(=O)c2ccc3ncccc3c2)C1 (stereo not drawn)	x	-3%	-4.5	-1%[15.4 µM]	4.4	17
CCOc1ccccc1CN1CCC(CO)(CCOc2ccccc2)CC1	x	7%	1.1	1%[15.4 µM]	0.4	46
CCOC(=O)c1cccc(NC(=O)C(C)n2nc(C)c3c(C)n(-c4ccccc4)nc3c2=O)c1 (stereo not drawn)	-6.6%	x	x	x	2.3	26
COc1ccc(OC)c(C2=NO[C@@](CC(=O)O)(C(=O)Nc3ccc4c(c3)OCCO4)C2)c1	x	3%	-12	u	-0.2	4
CN=C1S/C(=C\c2cn(CC(=O)OC)c3ccccc23)C(=O)N1C	x	-26%	u	-11%[15.4 µM]	0.5	13
COCCn1c(-c2ccccc2)c(C)n2c3c(=O)n(C)c(=O)n(C)c3nc12	0.9%	x	x	x	1.4	-18
Cc1ccc(Cl)c(OCCCCN(C)Cc2ccccc2)c1	1.0%	-2%	-0.2	u	0.0	-6
COCC(C)NC(=O)C1CCN(S(=O)(=O)c2ccc3ccccc3c2)CC1 (stereo not drawn)	-1.1%	-12%	x	3%	3.8	4
O=C(NCc1ccccn1)c1c(O)c2c([nH]c1=O)CCCC2	-5.9%	-2%	-0.5	u	0.1	0
CCCn1c(N)c(NCCN2CCOCC2)c(=O)[nH]c1=O	x	4%	u	15%[15.4 µM]	-0.3	33
COc1ccc(C)cc1S(=O)(=O)N1CCC(C(=O)N2CCOCC2)CC1	-7.7%	-11%	-1.0	-2%	-0.7	46
CC(=O)OCC(OC(C)=O)C(OC(C)=O)C(OC(C)=O)C(=O)Nc1ccc(C)cc1C (stereo not drawn)	3.4%	13%	-1.0	-1%	-0.5	-3
O=C(Nc1nnc(-c2ccccn2)o1)c1cccc(Br)c1	3.1%	-9%	3.2	2%	1.6	2
Cc1ccc2c(cnn2C(=O)CCCC(=O)NCc2ccc(F)cc2)c1	-1.1%	7%	-1.6	-16%	0.5	22
O=C(COC(=O)c1ccc(Cl)nc1)NNC(=O)c1ccc(Cl)cc1	x	15%	x	-1%[15.4 µM]	0.4	-6
O=C(CN(C(=O)c1csnn1)c1cccc(C(F)(F)F)c1)NCc1ccc(F)cc1	x	11%	0.4	-31%[inhibitor]	1.6	-4
Cc1cc(OCC(=O)NC(Cc2ccc(Cl)cc2)C(=O)O)c2c(C)cc(=O)oc2c1 (stereo not drawn)	4.5%	7%	0.4	x	x	x
O=C1CC(c2ccccc2)CC(=O)N1c1ccccc1	-0.6%	-8%	3.2	-17%	-0.6	18
CCCC(C(=O)Nc1ccc(S(=O)(=O)N2CCOCC2)cc1)c1ccccc1 (stereo not drawn)	-4.1%	-20%	x	-69%[inhibitor]	-0.3	-1
CCOC(=O)c1cc(C(=O)c2cc(Br)ccc2O)coc1=N	x	-15%	3.1	-2%[15.4 µM]	2.0	-9
COc1ccc2oc(C(=O)OCC(=O)NCCc3ccc(S(N)(=O)=O)cc3)c(C)c2c1	4.5%	-14%	x	-12%	-0.8	20
NC(=O)C(c1ccc(F)cc1)c1ccc(C(=O)c2ccccc2)cc1 (stereo not drawn)	-1.7%	0%	-2.4	u	x	x
CCOc1ccc(NC(=O)C(c2ccccn2)N(C(=O)CCl)c2ccc(OC)cc2)cc1 (stereo not drawn)	-0.4%	5%	0.7	6%	-0.1	-25
CCC(=O)N1CCc2cc(CNS(=O)(=O)c3cc(OC)ccc3OC)ccc21	-1.8%	x	x	x	1.2	-25
COc1ccc(-n2nc(C(=O)NCC(=O)N(C)Cc3ccccc3)c3ccccc3c2=O)cc1	x	-19%	0.5	10%[15.4 µM]	-0.3	0

Single values from the entries so far.
CCC(=O)N1CCc2cc(CNS(=O)(=O)c3cc(OC)ccc3OC)ccc21 in TRPML1 agonist: 1.2
CC(=O)OCC(OC(C)=O)C(OC(C)=O)C(OC(C)=O)C(=O)Nc1ccc(C)cc1C (stereo not drawn) in ClpP mod: 3.4%
O=C(Nc1nnc(-c2ccccn2)o1)c1cccc(Br)c1 in ClpP mod: 3.1%

Other results
SMILES	ClpP mod	gsp antag	Menin MLL FP FL	gsp ag	TRPML1 agonist	TRPML1 blocker
FC(F)(F)c1cccc(NC(=S)NC2CCCC2)c1	2.1%	1%	4.5	-2%	2.3	12
O=C(Nc1scc(-c2ccccc2)c1C(=O)O)c1ccco1	-2.0%	u	11	3%	0.2	2
COc1cc(/C=N/NC(=O)/C(=C\c2ccc3c(c2)OCO3)NC(=O)c2ccccc2)ccc1O	-26%	4%	1.0	6%	-0.3	-16
CC(=O)Nc1cc(-c2nn(CC(=O)N3CCCCC3)c(=O)c3ccccc23)ccc1N1CCOCC1	-2.2%	4%	0.0	16%	-0.1	-5
O=C(Cc1ccccc1)NC1c2ccccc2-c2ccccc21	x	5%	0.0	-16%[15.4 µM]	0.1	-7
CN(c1ccccc1C(=O)Nc1cccc([N+](=O)[O-])c1)S(=O)(=O)c1ccccc1	-0.4%	-7%	0.6	-22%	1.7	35
COc1ccc(CNC(=O)c2ccc(S(=O)(=O)N3CCOCC3)cc2)cc1	x	2%	x	20%[15.4 µM]	0.0	-10
CCN(CC(=O)Nc1ccc2c(c1)OCCO2)C(=O)/C=C/c1ccccc1	-0.9%	5%	5.6	-4%	2.3	20
